Screens as filed in PubChem BioAssay.
Yeast growth inh – growth inhibitors of yeast BB579 in restrictive medium, primary screen, yeast lifespan-shortening project, S. cerevisiae; OD615, 48 h; inhibition, % at 10 µM; 140,000 tested, 0.51% active; AID 804, 2007;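 active = inhibition above a set limit, 3 SD over the mean compound inhibition, cut at about 44% in these data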; note: inactives centre near -24
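Test system: Saccharomyces cerevisiae DeaD strain BB579, replicative lifespan model yeast | Buffer or medium: Restrictive CSMM-D medium | Doses: One dose, 10 µM compound with 0.25% DMSO | Incubation: 48 h exposure, 30 °C | Detection: Culture absorbance at 615 nm | Control set: Amphotericin B at 10 µg/mL as positive control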
Yeast lifespan up – compounds extending yeast replicative lifespan, primary screen, S. cerevisiae, OD615 | AID 775, 2007 | S. cerevisiae growth with nicotinamide; deaD strain in restrictive glucose medium | 130,000 tested, 0.68% active | inhibition of the nicotinamide effect, % at 10 µM;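 active = inhibition above a set limit, placed 3 SD over the median of all compounds, cut at about 26% in these data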;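 note: 0% = nicotinamide-treated wells and 100% = cells grown without nicotinamide; some compounds called inactive have numbers as strong as hits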
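System: DeaD-strain S. cerevisiae / Buffer or medium: CSMM-D, restrictive glucose (dextrose) synthetic minimal medium / Probe or stimulus: nicotinamide, 1.5 mM, co-present with compound / Compound: one concentration, 10 µM, DMSO 0.25% / Incubation: 48 h compound exposure at 30 °C, humidified / Technique: optical density (absorbance) at 615 nm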
NPY-Y2 antag – NPY-Y2 receptor antagonists, primary screen, cell-based; Neuropeptide Y receptor type 2 (Homo sapiens), P49146; NPY-Y2 expressing cells, antagonist mode; inhibition, % at 2.7 µM; 140,000 tested, 0.99% active; AID 793, 2007; in the data active = inhibition above about 17%;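 note: 0% = vehicle with agonist challenge and 100% = reference antagonist with challenge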
Target sequence (P49146 whole entry, looked up): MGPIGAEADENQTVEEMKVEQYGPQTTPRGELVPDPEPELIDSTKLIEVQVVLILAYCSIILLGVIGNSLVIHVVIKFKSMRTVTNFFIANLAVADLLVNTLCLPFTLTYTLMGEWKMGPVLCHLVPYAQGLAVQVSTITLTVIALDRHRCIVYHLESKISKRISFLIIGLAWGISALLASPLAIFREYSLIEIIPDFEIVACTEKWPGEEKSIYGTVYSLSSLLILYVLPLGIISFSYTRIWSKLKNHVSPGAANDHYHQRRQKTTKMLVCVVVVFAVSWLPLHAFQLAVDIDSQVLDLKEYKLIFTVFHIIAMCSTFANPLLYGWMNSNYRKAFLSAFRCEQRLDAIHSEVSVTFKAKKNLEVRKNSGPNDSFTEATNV
Measles CPE – compounds protecting cells from measles virus cytopathic effect, primary screen, measles RdRp inhibitor project, single point, MLSMR library, absorbance; 140,000 tested, 1.5% active; protection (pct of control), % at 4 µM; Measles virus-infected cells, CPE protection; in the data active = protection mostly above about 24%, no sharp cut-off; inactive = mostly below about 26%; note: some compounds called inactive have numbers as strong as hits
E-sel TNF inh – E-selectin induction blockers in HUVEC – imaging, immunofluorescence, high content, primary screen; HUVEC TNFa-induced E-selectin immunofluorescence; inhibition, % at 2 µM; 120,000 tested, 0.71% active; AID 1246, 2008;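 active = inhibition above the batch mean plus 3 SD, and confirmed as a hit on visual image review, cut at about 43% in these data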;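 note: 0% = TNF-stimulated DMSO wells and 100% = unstimulated control wells; not every result past the cut was called active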
MRP-1 activ – H69AR viability gain despite doxorubicin, primary screen, MRP-1 activator project, H69AR cells, CellTiter-Glo | viability rescue | viability increase, % at 10 µM | 140,000 tested, 0.61% active;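 active = viability gain under doxorubicin at or above a set limit, the compound median plus 3 SD, cut at about 4.7% in these data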;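 note: MRP-1 overexpressing cells given doxorubicin 25 µM after compound pretreatment; 18-22 h compound pretreatment then 72 h with doxorubicin before readout; 0% = doxorubicin-only wells and 100% = vehicle-treated cells without doxorubicin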
Phagocyt inh – inhibitors of macrophage phagocytosis, primary screen, imaging, J774A.1 cells, IgG beads; J774A.1 macrophage IgG-bead phagocytosis; inhibition, % at 5 µM; 110,000 tested, 0.07% active; AID 1029, 2008;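 active = inhibition above the mean of the plate negative controls plus 5 SD, cut at about 13% in these data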;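 note: phagocytic index as fraction of beads internalized from green versus red external bead signal; plate controls were DMSO negative control for no effect and cytochalasin-D positive control for full effect; some results beyond the cut were filed as inactive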
GALR2 blocker – GALR2 antagonists in receptor-expressing cells, primary screen | inhibition, % at 4 µM | 140,000 tested, 0.39% active | Galanin receptor type 2 (Homo sapiens), O43603 | AID 828, 2007 | antagonist mode; in the data active = inhibition above about 27%;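 note: cells stimulated with galanin 1-16 at roughly its EC80; 0% = agonist challenge control and 100% = basal control without agonist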
Active calls of the source: *; . = no result given; & = joins results of further samples.

SMILES	Yeast growth inh	Yeast lifespan up	NPY-Y2 antag	Measles CPE	E-sel TNF inh	MRP-1 activ	Phagocyt inh	GALR2 blocker
N=C(N)c1ccc(OCCCCCOc2ccc(C(=N)N)cc2)cc1	-16	5	0	7	.	-3.4	.	10
COc1ccc(C(CC(=O)O)NC(=O)C2CCCCC2)cc1 (stereo not given)	2	-13	2	3	-11	-0.3	1	7
Cn1nnnc1SCC(=O)Nc1ccccc1-c1ccccc1	-18	7	2	10	10	-1.0	8	2
CCOC(=O)C1=C(C(C)=O)C(c2cccnc2)C(C#N)=C(N)O1 (stereo not given)	-11	-20	0	5	1	-0.6	1	12
Cc1cccc(N2C(=O)CS/C2=N\NC(=O)c2ccc(Br)cc2)c1C	-11	.	1	20	-15	1.2	.	-17
CSc1nc2ccc(Cl)cc2[nH]1	-31	.	3	20	-17	-1.2	.	12
Cc1c(/C=N/NC(=O)c2sc3ccccc3c2Cl)cnn1C	2	39	8	12	-13	-2.0	-3	9
CCC1(CC)C(=O)NC(=O)NC1=Nc1cccc(OC)c1	-56	0	-1	1	22	0.7	0	12
COc1ccc(C2C3=C(CC(C)(C)CC3=O)Nc3cc4c(cc32)OCO4)cc1 (stereo not given)	-47	2	0	5	6	0.0	2	1
CCc1cccc2c(C=C(C#N)C#N)cn(CC(=O)N3CCCCCC3)c12	-43	1	1	25	3	-2.8	.	5
Cc1cc(C)c2c(=O)[nH]c(SCC(=O)N3CCCCC3)nc2n1	-16	0	3	4	3	-2.4	-1	-5
Cc1cccc(NCN2C(=O)c3ccccc3C2=O)c1	-24	-7	1	10	-10	-0.5	1	15
COc1cc(OC)nc(NC(=O)C(C)C)n1	-70	-9	1	6	.	-0.8	2	7
CCOC(=O)c1ccc(CNCc2ccc(Br)cc2)cc1	-4	6	10	11	-4	-1.8	.	3
O=C(NC(=O)c1ccccc1)OCC1CCCN2CCCCC12 (stereo not given)	33	-2	1	3	-1	-1.6	.	-6
COc1cccc(OC)c1C(=O)Nc1ccc(N2CCN(S(C)(=O)=O)CC2)cc1	-29	-7	0	19	.	-0.7	0	-9
CC(C)(C)SCCNC(=O)c1ccccc1	-11	-6	-1	7	.	-2.3	0	-9
CCOc1cc(S(=O)(=O)N2CCN(CC)CC2)ccc1Cl	-21	-19	2	10	-26	-3.1	2	-5
O=C1c2ccccc2C2=Nc3ccccc3SC(c3ccc(Cl)cc3)C12 (stereo not given)	-29	6	-4	4	.	-5.4	-8	8
CCn1c(CNC(=O)c2ccc(OC)cc2)nnc1SC	-8	-4	2	1	8	-0.5	0	2

Record cards, as listed above. Values in the order: Yeast growth inh	Yeast lifespan up	NPY-Y2 antag	Measles CPE	E-sel TNF inh	MRP-1 activ	Phagocyt inh	GALR2 blocker
Record of O=C1c2ccccc2C2=Nc3ccccc3SC(c3ccc(Cl)cc3)C12 (stereo not given) = -29	6	-4	4	.	-5.4	-8	8
Record of O=C(NC(=O)c1ccccc1)OCC1CCCN2CCCCC12 (stereo not given) = 33	-2	1	3	-1	-1.6	.	-6

Further results follow.
SMILES	Yeast growth inh	Yeast lifespan up	NPY-Y2 antag	Measles CPE	E-sel TNF inh	MRP-1 activ	Phagocyt inh	GALR2 blocker
COc1nc(N(C#N)CC(N)=O)nc(N2CCCC2)n1	17	-7	3	3	-7	-0.1	-1	-9
CC(/C=C\c1cccnc1)=C/C(=O)O	-17&-31	-15&4	3&1	3&4	41&-10	-1.9&-0.3	-1	-3&-5
Cc1cn([C@H]2C[C@H](N=[N+]=[N-])[C@@H](CO)O2)c(=O)[nH]c1=O	-29	7	2	1	.	-1.6	.	7
CCn1cc(C(=O)O)c(=O)c2cc(F)c(N3CCN(C(=O)Nc4ccccc4)CC3)cc21	-22	-24	-1	5	-9	-4.8	-1	-1
O=C(Nc1nccs1)c1ccc(Cl)cc1[N+](=O)[O-]	-12	-8	6	3	-3	-1.9	.	-4
CN(CC(=O)NCc1ccncc1)S(=O)(=O)c1ccccc1	-12	2	5	2	14	-0.5	.	-3

Structures above that contain a carbonyl joined to an NH by a bond outside any ring (13):
SMILES	Yeast growth inh	Yeast lifespan up	NPY-Y2 antag	Measles CPE	E-sel TNF inh	MRP-1 activ	Phagocyt inh	GALR2 blocker
COc1ccc(C(CC(=O)O)NC(=O)C2CCCCC2)cc1 (stereo not given)	2	-13	2	3	-11	-0.3	1	7
Cn1nnnc1SCC(=O)Nc1ccccc1-c1ccccc1	-18	7	2	10	10	-1.0	8	2
Cc1cccc(N2C(=O)CS/C2=N\NC(=O)c2ccc(Br)cc2)c1C	-11	.	1	20	-15	1.2	.	-17
Cc1c(/C=N/NC(=O)c2sc3ccccc3c2Cl)cnn1C	2	39	8	12	-13	-2.0	-3	9
COc1cc(OC)nc(NC(=O)C(C)C)n1	-70	-9	1	6	.	-0.8	2	7
O=C(NC(=O)c1ccccc1)OCC1CCCN2CCCCC12 (stereo not given)	33	-2	1	3	-1	-1.6	.	-6
COc1cccc(OC)c1C(=O)Nc1ccc(N2CCN(S(C)(=O)=O)CC2)cc1	-29	-7	0	19	.	-0.7	0	-9
CC(C)(C)SCCNC(=O)c1ccccc1	-11	-6	-1	7	.	-2.3	0	-9
CCn1c(CNC(=O)c2ccc(OC)cc2)nnc1SC	-8	-4	2	1	8	-0.5	0	2
COc1nc(N(C#N)CC(N)=O)nc(N2CCCC2)n1	17	-7	3	3	-7	-0.1	-1	-9
CCn1cc(C(=O)O)c(=O)c2cc(F)c(N3CCN(C(=O)Nc4ccccc4)CC3)cc21	-22	-24	-1	5	-9	-4.8	-1	-1
O=C(Nc1nccs1)c1ccc(Cl)cc1[N+](=O)[O-]	-12	-8	6	3	-3	-1.9	.	-4
CN(CC(=O)NCc1ccncc1)S(=O)(=O)c1ccccc1	-12	2	5	2	14	-0.5	.	-3

Some of the compounds tested; rates above refer to the full screens.
